# UUG fidelity – modulators of start codon recognition fidelity in yeast; AID 602363; S. cerevisiae UUG-firefly luciferase reporter, luminescence/redox ratio; activity score, % at 18.7 µM; actives 0.13% (n = 350,000);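 active = replicate mean at a twofold rise or more, about +100% in these data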;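 also: firefly luciferase made from a UUG start codon reports start codon fidelity; reporter light over untreated wells divided by growth signal over untreated wells; some hits fall short of that in this replicate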
# Env fusion inh – inhibitors of HIV Env-mediated cell fusion; HeLa-JRFL Env/CEM21 cell fusion, luciferase; actives 1.1% (n = 360,000); inhibition, % at 12.3 µM;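 active = mean replicate inhibition score of at least 50 and every replicate individually at or above 50; inconclusive = only one of the two criteria met; inactive = mean below 50 and not all replicates reaching 50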;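 also: 0% = plate neutral controls and 100% = maraviroc near 300 nM; one replicate is shown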
# * = called active by the depositor; ? = inconclusive; [ ] = remark or other dose.
SMILES,UUG fidelity,Env fusion inh
COc1cccc(S(=O)(=O)N(C)C[C@H]2Oc3ncc(C#CCC(C)C)cc3C(=O)N([C@@H](C)CO)C[C@@H]2C)c1,-11,17[16.7 µM]
COc1ccccc1NC(=O)N(C)C[C@@H]1Oc2ncc(Br)cc2C(=O)N([C@@H](C)CO)C[C@@H]1C,20,-21[16.7 µM]
C[C@@H]1CN([C@H](C)CO)S(=O)(=O)c2ccc(-c3ccccc3F)cc2O[C@@H]1CN(C)C,-8,-6[16.7 µM]
C[C@H]1CCCCO[C@H](CN(C)C(=O)Nc2ccccc2)[C@@H](C)CN([C@@H](C)CO)C(=O)c2cc(NC(=O)Nc3cccc4ccccc34)ccc2O1,-4,4[16.7 µM]
COCc1cn(CC[C@@H]2CC[C@@H](NC(=O)CCN3CCCCC3)[C@H](CO)O2)nn1,-27,-15[16.7 µM]
C[C@@H]1CN([C@H](C)CO)C(=O)c2cc(C#CCN(C)C)cnc2O[C@@H]1CN(C)S(=O)(=O)c1cn(C)cn1,21,-12[16.7 µM]
C[C@H](CO)N1C[C@H](C)[C@@H](CN(C)S(=O)(=O)c2ccc(F)cc2)Oc2ccc(NS(=O)(=O)c3ccc(F)cc3)cc2CC1=O,3,-1[16.7 µM]
C[C@@H]1CCCCO[C@@H](CN(C)C(=O)C2CCCCC2)[C@H](C)CN([C@@H](C)CO)C(=O)c2cc(NC(=O)c3ccccc3)ccc2O1,26,-38[16.7 µM]
COc1ccc(CN(C)C[C@@H]2Oc3ccc(NC(=O)Nc4ccc5c(c4)OCO5)cc3CC(=O)N([C@@H](C)CO)C[C@H]2C)cc1,6,6[16.7 µM]
C[C@@H]1CN([C@@H](C)CO)C(=O)CCCn2cc(nn2)CO[C@H]1CN(C)C(=O)c1ccc(N2CCN(C)CC2)cc1,5,6
C[C@@H]1CN([C@H](C)CO)C(=O)Cc2cc(NC(=O)Nc3ccc(F)cc3)ccc2O[C@@H]1CN(C)Cc1ccc(Cl)c(Cl)c1,10,-3[16.7 µM]
C[C@H]1CN([C@@H](C)CO)C(=O)c2cc(C#CC3CC3)cnc2O[C@H]1CN(C)Cc1ccccn1,-7,-19[16.7 µM]
CO[C@@H]1CN(C)C(=O)c2cc(NC(=O)Cc3ccccc3)ccc2OC[C@H](C)N(C)C[C@@H]1C,2,0[16.7 µM]
COCc1cn(CC[C@@H]2CC[C@H](NC(=O)Nc3ccc(OC)cc3)[C@H](CO)O2)nn1,0,3[16.7 µM]
COc1ccc(S(=O)(=O)N(C)C[C@H]2Oc3ccc(NC(=O)Nc4ccccc4)cc3CC(=O)N([C@H](C)CO)C[C@@H]2C)cc1,6,-3[16.7 µM]
C[C@H]1CN([C@@H](C)CO)C(=O)Cc2cc(N(C)C)ccc2O[C@H]1CN(C)C,-4,13[16.7 µM]
C[C@@H]1CN([C@@H](C)CO)C(=O)c2cc(C#C[C@@H](C)O)cnc2O[C@@H]1CN(C)C(=O)c1ccccc1,-10,0[16.7 µM]
C[C@@H]1CN([C@@H](C)CO)C(=O)c2cc(C#CC(C)(C)O)cnc2O[C@H]1CN(C)C(=O)c1ccccc1F,0,7[16.7 µM]
O=C(Nc1ccc(C(F)(F)F)cc1)N[C@H]1C=C[C@@H](CC(=O)N2CCCCC2)O[C@H]1CO,6,6[16.7 µM]
COc1ccccc1-c1cnc2c(c1)C(=O)N([C@H](C)CO)C[C@H](C)[C@@H](CN(C)C(C)=O)O2,-15,19[16.7 µM]
COc1ccccc1NC(=O)N1C[C@@H](O)COC[C@H]2O[C@H](CC(=O)NCCc3ccncc3)CC[C@@H]21,-6,-17[16.7 µM]
COc1ccc(NC(=O)Nc2ccc3c(c2)C(=O)N([C@@H](C)CO)C[C@H](C)[C@@H](CN(C)S(=O)(=O)c2cn(C)cn2)OCCCC[C@@H](C)O3)cc1,10,9[16.7 µM]
COc1ccc(NC(=O)Nc2ccc3c(c2)C(=O)N([C@@H](C)CO)C[C@@H](C)[C@@H](CN(C)C(=O)C2CCCCC2)OCCCC[C@@H](C)O3)cc1,-6,-19[16.7 µM]
Cc1noc(C)c1S(=O)(=O)N(C)C[C@@H]1Oc2ccc(NS(=O)(=O)c3ccccc3)cc2CC(=O)N([C@H](C)CO)C[C@@H]1C,-10,6[16.7 µM]
Cc1ccc(S(=O)(=O)Nc2ccc3c(c2)C(=O)N([C@H](C)CO)C[C@@H](C)[C@@H](CN(C)Cc2ccc(C(=O)Nc4ccccc4N)cc2)O3)cc1,22,5[16.7 µM]

# An excerpt from above in order of formula weight, smallest number first:
SMILES,UUG fidelity,Env fusion inh
C[C@@H]1CN([C@@H](C)CO)C(=O)c2cc(C#C[C@@H](C)O)cnc2O[C@@H]1CN(C)C(=O)c1ccccc1,-10,0[16.7 µM]
COc1ccccc1NC(=O)N(C)C[C@@H]1Oc2ncc(Br)cc2C(=O)N([C@@H](C)CO)C[C@@H]1C,20,-21[16.7 µM]
Cc1noc(C)c1S(=O)(=O)N(C)C[C@@H]1Oc2ccc(NS(=O)(=O)c3ccccc3)cc2CC(=O)N([C@H](C)CO)C[C@@H]1C,-10,6[16.7 µM]

# (list continues)
SMILES,UUG fidelity,Env fusion inh
COc1ccc(NC(=O)Nc2ccc3c(c2)C(=O)N([C@@H](C)CO)C[C@@H](C)[C@@H](CN(C)Cc2ccc(C(F)(F)F)cc2)O3)cc1,2,?
CNC[C@H]1OCCCC[C@H](C)Oc2ccc(NS(=O)(=O)c3ccc(F)cc3)cc2C(=O)N([C@H](C)CO)C[C@H]1C,6,11[16.7 µM]
C[C@H]1CN([C@@H](C)CO)C(=O)c2cccc(NC(=O)NC3CCCCC3)c2O[C@@H]1CN(C)CC1CCCCC1,-1,24[16.7 µM]
CS(=O)(=O)N1[C@H](C#N)[C@@H](c2ccc(-c3ccccc3F)cc2)[C@@H]1CO,-13,12[16.7 µM]
CC(C)NC(=O)N[C@@H]1CC[C@@H](CC(=O)O)O[C@@H]1CO,-12,-8[16.7 µM]
COc1ccc(NC(=O)N(C)C[C@@H]2Oc3ccc(NS(=O)(=O)c4ccc(OC)cc4)cc3C(=O)N([C@@H](C)CO)C[C@@H]2C)cc1,0,-9[16.7 µM]
C/C=C/c1ccc2c(c1)O[C@@H](CN(C)S(C)(=O)=O)[C@@H](C)CN([C@@H](C)CO)S2(=O)=O,23,13[16.7 µM]
CNC[C@H]1Oc2cc(C#Cc3ccccn3)ccc2S(=O)(=O)N([C@@H](C)CO)C[C@@H]1C,5,-51[16.7 µM]
O=C(C[C@@H]1CC[C@@H]2[C@H](COC[C@@H](O)CN2C(=O)C2CCOCC2)O1)NCc1ccncc1,-8,8[16.7 µM]
COc1cccc(NC(=O)C[C@H]2CC[C@H]3[C@@H](COc4ccc(NS(=O)(=O)c5cccc(F)c5)cc4C(=O)N3C)O2)c1,11,14[16.7 µM]
CN(C)CC(=O)N[C@H]1CC[C@H](CC(=O)NCc2ccccc2F)O[C@H]1CO,3,-1[16.7 µM]
CN1C(=O)c2cc(NC(=O)c3ccc(C(F)(F)F)cc3)ccc2OC[C@H]2O[C@H](CC(=O)O)CC[C@@H]21,-1,-2[16.7 µM]
O=C(NC1CCCC1)N[C@H]1CC[C@H](CC(=O)N2CCOCC2)O[C@H]1CO,-2,-3[16.7 µM]
O=C(N[C@@H]1CC[C@H](CCNS(=O)(=O)c2ccccc2)O[C@@H]1CO)c1cccnc1,-10,1[16.7 µM]
O=C1O[C@H](c2ccccc2)[C@H](c2ccccc2)N2[C@H]1[C@@H](C(=O)N1CCCCCCC1)[C@]1(C(=O)Nc3ccc(C#CC4(O)CCCCCC4)cc31)[C@H]2c1ccc(OCCO)cc1,-11,2[16.7 µM]
C[C@H](CO)N1C[C@H](C)[C@@H](CN(C)Cc2ccccc2F)Oc2ncc(C#CCN(C)C)cc2C1=O,-6,12[16.7 µM]
C[C@H]1CN([C@@H](C)CO)S(=O)(=O)c2ccc(C3=CCCC3)cc2O[C@@H]1CN(C)S(=O)(=O)c1ccc(F)cc1,1,23[16.7 µM]
O=C(NCC[C@@H]1CC[C@@H](NS(=O)(=O)c2ccccc2F)[C@H](CO)O1)c1ccc(F)cc1,2,5[16.7 µM]
CN(C)CC(=O)N[C@@H]1CC[C@H](CCn2cc(C3CC3)nn2)O[C@H]1CO,-11,-9[16.7 µM]
COc1ccc(S(=O)(=O)Nc2ccc3c(c2)CC(=O)N([C@@H](C)CO)C[C@@H](C)[C@@H](CN(C)S(=O)(=O)c2ccc(C)cc2)O3)cc1,-2,5[16.7 µM]
Cc1ccc(S(=O)(=O)N(C)C[C@@H]2Oc3ncc(-c4ccncc4)cc3C(=O)N([C@@H](C)CO)C[C@H]2C)cc1,200*,4[16.7 µM]
CC(C)NC(=O)Nc1ccc2c(c1)C(=O)N([C@H](C)CO)C[C@H](C)[C@@H](CN(C)S(=O)(=O)c1cn(C)cn1)OCCCC[C@H](C)O2,-21,17[16.7 µM]
O=C(NCC[C@@H]1CC[C@H](NC(=O)C2CCC2)[C@@H](CO)O1)c1ccc(F)cc1,1,-13[16.7 µM]
Cc1noc(C)c1S(=O)(=O)N(C)C[C@@H]1Oc2ccc(NC(=O)Nc3ccc(F)cc3)cc2CC(=O)N([C@@H](C)CO)C[C@@H]1C,33,55*[16.7 µM]
Cc1ccc(S(=O)(=O)N(C)C[C@@H]2OCCCC[C@@H](C)Oc3ccc(NC(=O)Nc4cccc5ccccc45)cc3C(=O)N([C@H](C)CO)C[C@H]2C)cc1,-7,-99[16.7 µM]
SMILES,UUG fidelity,Env fusion inh
Cc1ccc(S(=O)(=O)Nc2ccc3c(c2)C(=O)N([C@H](C)CO)C[C@@H](C)[C@H](CN(C)S(=O)(=O)c2cccs2)OCCCC[C@@H](C)O3)cc1,-2,-10[16.7 µM]
COc1ccc(CN(C)C[C@@H]2Oc3ccc(NC(=O)Cc4cn(C)c5ccccc45)cc3CC(=O)N([C@H](C)CO)C[C@H]2C)cc1,0,-55[16.7 µM]
Cc1noc(C)c1S(=O)(=O)Nc1ccc2c(c1)C(=O)N([C@H](C)CO)C[C@H](C)[C@@H](CN(C)Cc1ccncc1)OCCCC[C@H](C)O2,4,-16[16.7 µM]
O=C(C[C@@H]1CC[C@H](NC(=O)Nc2ccccc2F)[C@H](CO)O1)NCc1ccc(Cl)cc1,6,20[16.7 µM]
O=C(C[C@H]1C[C@@H]2c3cc(NC(=O)c4cccnc4)ccc3O[C@@H]2[C@H](CO)O1)NCc1cccnc1,-19,3[16.7 µM]
COc1ccc(CN(C)C[C@H]2Oc3ccc(NC(=O)Nc4ccccc4)cc3CC(=O)N([C@@H](C)CO)C[C@@H]2C)cc1,-1,-2[16.7 µM]
C[C@@H]1CN([C@@H](C)CO)C(=O)c2cc(C#CCc3ccccc3)cnc2O[C@H]1CN(C)Cc1ccccn1,42,3[16.7 µM]
O=C(Nc1cccc(Cl)c1)N[C@H]1CC[C@@H](CCNC(=O)C2CCCC2)O[C@H]1CO,10,11[16.7 µM]
CC(C)C#Cc1ccc([C@@H]2[C@H](C#N)N(C(=O)C3CC3)[C@H]2CO)cc1,4,-16[16.7 µM]
COc1ccc(S(=O)(=O)N(C)C[C@H]2OCCCC[C@H](C)Oc3ccc(NS(=O)(=O)c4ccc(C)cc4)cc3C(=O)N([C@@H](C)CO)C[C@H]2C)cc1,-1,-11[16.7 µM]
Cc1noc(C)c1S(=O)(=O)Nc1ccc2c(c1)C(=O)N([C@@H](C)CO)C[C@H](C)[C@H](CN(C)C(=O)Nc1ccc(C(F)(F)F)cc1)O2,3,-11[16.7 µM]
O=C(N[C@@H]1CC[C@@H](CC(=O)N2CCc3ccccc3C2)O[C@H]1CO)C1CC1,2,-17[16.7 µM]
CC(=O)N(C)C[C@@H]1Oc2ncc(-c3cccnc3)cc2C(=O)N([C@@H](C)CO)C[C@H]1C,-10,18[16.7 µM]
C/C=C/c1ccc2c(c1)O[C@H](CN(C)C(=O)Cc1ccccc1)[C@H](C)CN([C@H](C)CO)S2(=O)=O,28,16[16.7 µM]
C[C@@H]1CCCCO[C@H](CN(C)Cc2ccc(C(F)(F)F)cc2)[C@@H](C)CN([C@H](C)CO)C(=O)c2cc(NS(C)(=O)=O)ccc2O1,-2,24[16.7 µM]
O=C(Cc1ccccn1)N[C@@H]1C=C[C@@H](CC(=O)N2CCCCC2)O[C@@H]1CO,-3,6[16.7 µM]
C[C@@H]1CN([C@@H](C)CO)C(=O)Cc2cc(NS(=O)(=O)c3cccs3)ccc2O[C@@H]1CN(C)Cc1ccc2c(c1)OCO2,8,4[16.7 µM]
C[C@H]1CN([C@@H](C)CO)C(=O)c2cc(NC(=O)Nc3ccccc3)ccc2O[C@H]1CN(C)Cc1ccncc1,-15,19[16.7 µM]
C[C@@H]1CN([C@H](C)CO)C(=O)c2cc(NC(=O)Nc3ccc4c(c3)OCO4)ccc2O[C@@H](C)CCCCO[C@H]1CN(C)S(C)(=O)=O,14,-6[16.7 µM]
Cc1ccccc1S(=O)(=O)NCC[C@@H]1CC[C@H](NC(=O)C2CCC2)[C@@H](CO)O1,9,-9[16.7 µM]

# Exported with values ahead of the structure: 2 of the compounds above.
UUG fidelity | Env fusion inh | SMILES
3 | -11[16.7 µM] | Cc1noc(C)c1S(=O)(=O)Nc1ccc2c(c1)C(=O)N([C@@H](C)CO)C[C@H](C)[C@H](CN(C)C(=O)Nc1ccc(C(F)(F)F)cc1)O2
2 | -17[16.7 µM] | O=C(N[C@@H]1CC[C@@H](CC(=O)N2CCc3ccccc3C2)O[C@H]1CO)C1CC1

# Structures shown so far containing a cyano group, in the order listed:
SMILES,UUG fidelity,Env fusion inh
CS(=O)(=O)N1[C@H](C#N)[C@@H](c2ccc(-c3ccccc3F)cc2)[C@@H]1CO,-13,12[16.7 µM]
CC(C)C#Cc1ccc([C@@H]2[C@H](C#N)N(C(=O)C3CC3)[C@H]2CO)cc1,4,-16[16.7 µM]

# Assay outcomes: PubChem, Broad Institute

# A portion of the library. The share of hits here may be higher or lower than overall.
